Assay outcomes deposited in PubChem by National Center for Advancing Translational Sciences (NCATS).
Vaccinia Venus: inhibitors of vaccinia virus (Venus reporter) | 0.46% of 330,000 active | Potency, µM (top dose mostly 36.5 µM), for inactives: at the top dose activity change, negative = inhibition, most hits filed as inhibitors | Vaccinia virus Venus reporter expression, fluorescence | AID 720580; active means well fitted inhibition curve with a large enough effect; inconclusive means small, poorly fitted or top-dose-only effect; inactive means no such curve, though single readings can be large or run the other way; tested in A549 cells; further: nearly all actives have a fitted effect of over 30% in size; inactives centre near -10
VACV mCherry inh: inhibitors of vaccinia virus infection (mCherry reporter signal). AID 720579. Potency, µM (titrated, usually from 36.5 µM), without a hit: at the top dose activity change, negative = inhibition, usual class: inhibitors. Vaccinia virus mCherry reporter infection, fluorescence; about a quarter of the inactives have no number. 0.63% of 310,000 active; active = well fitted inhibition curve with a large enough effect; inconclusive = small, poorly fitted or top-dose-only effect; inactive = no such curve, though single readings can be large or run the other way; tested in A549 cells; further: nearly all actives have a fitted effect of over 35% in size; inactives centre near -10
* = called active by the depositor; i = inactive; ? = inconclusive; / = not tested or not shown; & = joins results of further samples; [ ] = another dose, or the depositor's remark. On the % scale 0 is the no-effect control and ±100 the full control effect; potency means the concentration at half of the fitted maximal effect.

SMILES	Vaccinia Venus	VACV mCherry inh
COC(=O)CCCn1cc(CN2CC(N(C)C)CS2(=O)=O)nn1 (stereo not given)	3%	32%[activator]
CC(=O)Oc1cc2c(C(=O)NCc3ccncc3)c(C)oc2c2ccccc12	-12%	?
COC(=O)Cc1ccc(OCc2ccc(Cl)nc2)cc1	-1%	14%
COc1ccc(CNC(=S)N/N=C(\C)c2ccc(OC)cc2)cc1	-18%	-21%
CCOC(=O)C1CCN(C(=O)CSc2n[nH]c(=O)[nH]c2=O)CC1	9%	/
CN(Cc1ccccc1)c1ccc(C(=O)O)cc1[N+](=O)[O-]	2%	-7%
CCC1CCCCN1S(=O)(=O)c1ccc(C(=O)Nc2nnc(C3=COCCO3)o2)cc1 (stereo not given)	-17%	i
CC1CC(=O)N(c2ccc(NCc3ccc(Cl)cc3)c([N+](=O)[O-])c2)C1=O (stereo not given)	-8%	-10%
CCCCCCCCNCCS(=O)(=O)NCc1ccc(OC)cc1	-21%	0%
O=C1NN(c2ccccc2)C(=O)/C1=C/c1ccc(-c2cccc(C(=O)O)c2)o1	-14%	i
O=C(O)c1ccccc1/C=N/Nc1ccc(S(=O)(=O)N2CCOCC2)cc1[N+](=O)[O-]	1%[7.34 µM]	-11%[7.34 µM]
COc1ccc(-c2ccc3c(c2)[C@@H]2C[C@H](N(C)C(=O)Nc4ccccc4)[C@H]([C@H](C)O)C(=O)N2CC3)cc1	?	?
COc1ccccc1CNC(=O)c1nnc(Cc2ccc(Cl)cc2)o1	-23%	?
COc1ccc(NC(=O)CCNS(=O)(=O)c2cccc3nsnc23)cc1	-2%&-14%	0%
NC(=O)c1ccsc1NC(=O)CSc1nnc(C2CC2)n1Cc1ccccc1	-18%	/
CCOc1cc(C2c3c(oc4cc(C)cc(C)c4c3=O)C(=O)N2CCO)ccc1O (stereo not given)	0%	0%
CCCOc1ccc(C(=O)N/N=C/c2ccc(-c3ccc(S(=O)(=O)Nc4ncccn4)cc3)o2)cc1	-4%	-3%
Cc1ccc(C)c(Oc2ccc(S(=O)(=O)N3CCN(C)CC3)cn2)c1	-3%	i
COc1cccc(OC)c1C(=O)NC(C)CCc1ccccc1 (stereo not given)	-14%	-12%
CN(CC(=O)Nc1ccc(N2CCOCC2)cc1)CC(=O)Nc1ccc(Cl)cc1[N+](=O)[O-]	4%	-9%
COCCCNC(=O)CSc1nc2cc3c(cc2c(=O)n1CCCC(=O)NCc1ccc(OC)cc1)OCO3	3%&-9%	-5%&-10%
CC(C)c1ccc(NC(=O)C2CC(=O)N(C(C)C)C2)cc1 (stereo not given)	-14%	-16%
Nc1c(C(=O)NCCc2ccccc2)nnn1Cc1ccc(Br)cc1F	13%	-18%
Nc1nonc1-n1nnc(C(=O)N/N=C/C2CCCCC2)c1-c1ccccc1	-6%	?
CCOc1ccc(NC(=O)C(NS(=O)(=O)c2ccc3c(c2)CCN3C(C)=O)C(C)C)cc1 (stereo not given)	-1%	2%
CCOc1ccc(/C=C(\C(=O)O)c2ccc(S(=O)(=O)N3CCCCC3)s2)cc1OC	-9%	i
On1onc2c3cc(-c4ccccc4)nc3ccc21	?	3.2µM*
CCN1C2OC3OC4C(OC3OC2N(CC)S1(=O)=O)N(CC)S(=O)(=O)N4CC (stereo not given)	-9%	-15%
Nc1ccc(C(=O)Nc2ccc(Nc3ccncc3)cc2)c([N+](=O)[O-])c1	-10%	i
COc1ccc(S(=O)(=O)NC(=O)C2(C)CCN2C(=O)CCc2ccc(Cl)cc2Cl)cc1 (stereo not given)	-6%	52%[activator]
COc1cc(N=c2ssnc2Cl)cc(OC)c1	-7%	-12%
COc1ccc(CNC(=O)C(c2ccco2)N(C(=O)c2snc(C(N)=O)c2N)c2cccc(OC)c2)cc1 (stereo not given)	-5%	-5%
CCOC(=O)c1c(C)oc2nc(C)nc(N3CCN(c4ccccc4F)CC3)c12	-28%	-6%
CCOCc1cn(CC(=O)c2ccc([N+](=O)[O-])cc2)c(C)nc1=N	5%	-3%
CC(C)n1c(N2CCN(S(=O)(=O)c3cccc([N+](=O)[O-])c3)CC2)nc2ccccc21	-14%	?
O=C1N=C(N2CCCC2)CN1c1ccccc1	-14%	-10%
N#C/C(=C\N1CCOCC1)S(=O)(=O)c1ccc(Cl)cc1	-8%	-14%
Fc1cccc(F)c1/C=N/N1CCOCC1	-10%	i
COc1cccc(CNC(=O)C(c2ccc(Cl)cc2)C(C)C)c1 (stereo not given)	-8%	-16%
CC1=C(C(=O)N2CCCCCC2)CC(CC(=O)NC2CCCCC2)C(=O)N1Cc1ccccc1 (stereo not given)	-2%	10%
COc1ccc(CNC(=O)CN(Cc2ccco2)C(=O)CCC(=O)Nc2ccccn2)cc1	-14%	-17%
O=C(Nc1nccs1)C1CC(=O)N(c2ccc(F)cc2)C1 (stereo not given)	6%	-2%
CCOc1ccc(CNC(=O)C2CCN(c3nnc(-n4c(C)ccc4C)s3)CC2)cc1	-22%	i
CN(CC(=O)Nc1sccc1C(N)=O)S(=O)(=O)c1ccc(Cl)cc1	-4%	i
Cc1ccc2c(CC(=O)Nc3ccc(S(=O)(=O)Nc4nc(C)cc(C)n4)cc3)coc2c1	-6%	-1%
CS(=O)(=O)c1ccc2nc(NC(=O)Nc3ccc(Cl)c(Cl)c3)sc2c1	-6%	-16%
CN(C)c1ccc(C(=O)OCC(=O)NC2CCCCC2)cc1	5%	4%
COC(=O)/C(=C\C(=O)c1ccc([N+](=O)[O-])cc1)Nc1ccc(OC)cc1	1%	-1%
Cc1cccc(CNC(=O)c2c3n(c(C)cc2=O)-c2ccccc2SC(c2sccc2C)C3)n1 (stereo not given)	12%	-2%
COc1ccc(N2C(=S)N=C(Nc3cccc(C)c3)C23CCCCC3)cc1	-1%	-3%
CCOC(=O)N1CCN(C(=O)COC(=O)CNC(=O)c2ccc(OCC)c(OCC)c2)CC1	9%	i
COc1ccc(-c2cc(=O)c3cc(OC)ccc3o2)cc1	-4%&-8%	-1%&12%
CCOc1ccc(C(C)NC(=O)C2CCN(S(=O)(=O)c3ccc(OC)cc3)CC2)cc1OCC (stereo not given)	-16%	i
CCc1ccc(S(=O)(=O)/N=C2\C=C(Nc3ccc(O)cc3)C(=O)c3ccccc32)cc1	4µM*	?
COc1ccc2nc(-c3ccccc3)cc(C(=O)OCC(=O)NC3CC3)c2c1	-3%	-11%
COc1ccc(NC(=O)CCNC(=O)N2CC(=O)Nc3ccccc32)cc1	-13%	i
CCN(CC)S(=O)(=O)c1cccc(C(=O)OC2CCOC2=O)c1 (stereo not given)	8%	-4%
O=C(COc1ccccc1)Nc1cccc(-c2ccc(N3CCOCC3)nn2)c1	2%	-15%
COc1ccccc1C(=O)N=c1sc2c(C)ccc(OC)c2n1C	-8%	-25%
COc1ccc(-c2nnc(SCC(=O)Nc3ccccc3)n2C)cc1	-8%	-13%

Next section.
SMILES	Vaccinia Venus	VACV mCherry inh
COc1ccc(COCC(CC(C)C)N2CCN(C(=O)c3cccc(C(F)(F)F)c3)CCC2=O)cc1 (stereo not given)	?	i
Cc1ccc(CNC(=O)C2CCC(=O)N2C2CCCCC2)cc1 (stereo not given)	-10%	-8%
CCOCC(=O)Nc1cc(C(F)(F)F)ccc1Oc1cccc(Br)c1	-14%	/
O=C(c1ccc(-c2cccc(C(F)(F)F)c2)o1)N1CCN(c2ccccc2O)CC1	-29%	-15%
COc1ccc2nc(NS(=O)(=O)c3ccc(NC(C)=O)cc3)sc2c1	-12%	i
COc1cc(-c2ccno2)ccc1S(=O)(=O)N1CCN(c2cc(C)ccc2C)CC1	-3%[7.34 µM]	-9%[7.34 µM]
CCc1ccc(C(C(=O)NC2CCCC2)N(CCOC)C(=O)CCC(=O)Nc2cc(C)on2)cc1 (stereo not given)	-19%	-17%
COc1ccc(NS(=O)(=O)c2cc(Cl)ccc2Cl)cc1S(=O)(=O)N1CCCCC1	27%	i
COC(=O)c1sccc1N/C=C(\C#N)S(=O)(=O)C(C)(C)C	-5%	-20%
CC1(N2CCOCC2)CC2(O)C(=[N+]1[O-])CCc1c2no[n+]1[O-] (stereo not given)	-3%	-15%
COC(=O)[C@]12CCCCC=C1N(Cc1ccc(Cl)cc1Cl)C(=O)[C@H](CC(=O)NCC1CCCCC1)C2	3%	i
CCOC(=O)C1CCN(S(=O)(=O)c2cc3c4c(c2)CC(=O)N4CCC3)CC1	-2%	-14%
Cc1ccc(C(=O)O/N=C2\CCS(=O)(=O)c3sccc32)cc1	-24%	/
CCCC(=O)NC(c1ccc(OC)c(OC)c1)c1c(O)ccc2ccccc12 (stereo not given)	-10%	-18%
COc1ccc(NC(=O)CC2S/C(=N\c3nccs3)N(C)C2=O)cc1 (stereo not given)	-3%	i
COc1cc(CN2CC(=O)N(c3ccc(C)c(Cl)c3)C2=S)cc(OC)c1OC	-2%	-18%
CCOC(=O)[C@@H]1[C@H]2COc3ccc(Br)cc3[C@H]2N2C(=O)N(c3ccc(F)cc3)C(=O)[C@]12C	-18%	?
Cc1cc(C)c(S(=O)(=O)N2CCCOC2CNC(=O)C(=O)NCc2cccnc2)c(C)c1 (stereo not given)	-6%	i
Cc1cccc(CCNC(=O)c2ccc(CSCc3cccc(Cl)c3)o2)c1	2%	-12%
Cc1cc2nc(C)n(CCCNC(=O)Nc3ccc(C#N)cc3)c2cc1C	1%	-12%
O=C(C1CCCCC1)N1CCN(c2ccnc3cc(Cl)ccc23)CC1	-12%	-25%
Cc1cccc(N(C)C(=O)CCNS(=O)(=O)c2ccc3c(c2)CCN3C(=O)C2CC2)c1	-1%	-13%
O=C(Nc1ccccc1)OC1CCC2CC1CCC2OC(=O)Nc1ccccc1 (stereo not given)	?	i
CNS(=O)(=O)c1cccc(C(=O)OCC(=O)Nc2nc(OC)cc(OC)n2)c1	-13%	-15%
CCOc1ccc(C(C(=O)NC2CCCCC2)N(C(=O)c2csnn2)C2CC2)cc1 (stereo not given)	-13%	-12%
Cc1nc(N[C@@H](Cc2c[nH]c3ccccc23)C(=O)O)c2oc3ccccc3c2n1	1%	-12%
CCN(CC)CCCNc1nc2ccccc2c2[nH]c3ccc(OC)cc3c12	10µM*	?
O=C(Nc1ccccc1)Nc1cccc(C(F)(F)F)c1	-15%	-10%
COc1ccc(OC)c(NC(=O)CCc2c(C)nc3c(c(C)nn3C(C)(C)C)c2C)c1	-4%	-13%
CCCNC(=O)N[C@H]1CC[C@@H](CCn2cc(-c3cccc(F)c3)nn2)O[C@@H]1CO	-1%	11%
CCOC(=O)N1CCN(C(=O)c2c(O)c3cccc4c3n(c2=O)CC4)CC1	-16%	/
COc1ccccc1CNC(=O)C(=O)NCC(c1ccco1)S(=O)(=O)c1cccs1 (stereo not given)	-8%	-4%
CCOc1ccccc1NC(=S)NC(=O)c1ccco1	-16%	-1%
CSc1ncnc2c1cnn2-c1ccc(C)cc1C	3%	i
Cn1c(=O)c2c(nc(CN3CCc4ccccc4C3)n2Cc2ccccc2)n(C)c1=O	-15%	-26%
NS(=O)(=O)c1ccc(CCN=C(NS(=O)(=O)c2cccs2)c2ccccc2)cc1	-8%	i

Rewritten with two lines to a compound: entries from further up.
Each structure is followed by: Vaccinia Venus, VACV mCherry inh
> COc1ccc(-c2nnc(SCC(=O)Nc3ccccc3)n2C)cc1
 : -8%, -13%
> COc1ccc(COCC(CC(C)C)N2CCN(C(=O)c3cccc(C(F)(F)F)c3)CCC2=O)cc1 (stereo not given)
 : ?, i
> Cc1ccc(CNC(=O)C2CCC(=O)N2C2CCCCC2)cc1 (stereo not given)
 : -10%, -8%
> CCOCC(=O)Nc1cc(C(F)(F)F)ccc1Oc1cccc(Br)c1
 : -14%, /
> O=C(c1ccc(-c2cccc(C(F)(F)F)c2)o1)N1CCN(c2ccccc2O)CC1
 : -29%, -15%
> COc1ccc2nc(NS(=O)(=O)c3ccc(NC(C)=O)cc3)sc2c1
 : -12%, i
> COc1cc(-c2ccno2)ccc1S(=O)(=O)N1CCN(c2cc(C)ccc2C)CC1
 : -3%[7.34 µM], -9%[7.34 µM]
> CCc1ccc(C(C(=O)NC2CCCC2)N(CCOC)C(=O)CCC(=O)Nc2cc(C)on2)cc1 (stereo not given)
 : -19%, -17%
> COc1ccc(NS(=O)(=O)c2cc(Cl)ccc2Cl)cc1S(=O)(=O)N1CCCCC1
 : 27%, i
> COC(=O)c1sccc1N/C=C(\C#N)S(=O)(=O)C(C)(C)C
 : -5%, -20%
> CC1(N2CCOCC2)CC2(O)C(=[N+]1[O-])CCc1c2no[n+]1[O-] (stereo not given)
 : -3%, -15%
> COC(=O)[C@]12CCCCC=C1N(Cc1ccc(Cl)cc1Cl)C(=O)[C@H](CC(=O)NCC1CCCCC1)C2
 : 3%, i
> CCOC(=O)C1CCN(S(=O)(=O)c2cc3c4c(c2)CC(=O)N4CCC3)CC1
 : -2%, -14%
> Cc1ccc(C(=O)O/N=C2\CCS(=O)(=O)c3sccc32)cc1
 : -24%, /
> CCCC(=O)NC(c1ccc(OC)c(OC)c1)c1c(O)ccc2ccccc12 (stereo not given)
 : -10%, -18%
> COc1ccc(NC(=O)CC2S/C(=N\c3nccs3)N(C)C2=O)cc1 (stereo not given)
 : -3%, i
> COc1cc(CN2CC(=O)N(c3ccc(C)c(Cl)c3)C2=S)cc(OC)c1OC
 : -2%, -18%
> CCOC(=O)[C@@H]1[C@H]2COc3ccc(Br)cc3[C@H]2N2C(=O)N(c3ccc(F)cc3)C(=O)[C@]12C
 : -18%, ?

Further records follow.
SMILES	Vaccinia Venus	VACV mCherry inh
Cc1c(Cl)cccc1NC(=O)N1CCOc2ccccc21	1%	-16%
C/C(=N\NC(=O)c1ccc(Cl)c(Cl)c1)c1ccc(Br)s1	-13%	-20%
CCCCCSc1nnc2c(n1)OC(c1ccc(C)s1)N(C(C)=O)c1ccccc1-2 (stereo not given)	-6%	-4%
CC1CC(C)CN(C(=O)C(NS(=O)(=O)c2ccc(Br)s2)c2ccccc2)C1 (stereo not given)	-20%	i
